miR-21 reporter: miR-21 reporter, rising signal; HeLa miR-21 FLuc reporter, luciferase, 48 h; AID 2288; 340,000 tested, under 10 active; Potency, µM (top dose mostly 38.3 µM), without a hit: at the highest dose reporter change, positive = more light; active = well fitted rising curve with a large enough effect; inconclusive = small, poorly fitted or top-dose-only effect; inactive = no such curve, though single readings can be large or run the other way;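 also: % of control where 0% means no effect; miR-21 action dims this reporter so a rising signal means less miR-21 action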
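Using DMEM plus 10% FBS, HeLa miR-21-FLuc cells are incubated with test compounds (final up to about 40uM) for 48 hours; firefly luciferase signal is then imaged following reagent-mediated lysis.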
Rango dissoc inh: prevents RanGTP from dissociating the Rango-importin beta complex; Biochemical FRET Rango-importin beta, RanGTP-induced dissociation; Potency, µM (titrated, usually from 46.1 µM), without a hit: at the highest dose activity change, negative = inhibition; 0.071% of 340,000 active; O95149+P62826; active means falling FRET ratio curve, often poorly fitted, with flat reads before Ran was added; inconclusive means other falling curves, or compound fluorescence or quenching; inactive means flat or rising ratio curve;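 also: potency is read from the fitted curve at half-maximal effect; % of control where 0% means no effect; nearly all actives have a fitted effect of over 45% in size; -100% = wells without RanGTP and RCC1; the record marks most hits as doubtful in a second field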
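Compounds preincubate 5 min with complex of recombinant Rango and importin beta in PBS with 1 mM DTT. Ran (0.6 uM) loaded with 2 mM GTP plus 0.2 uM RCC1 starts dissociation; FRET is recorded 45 min later.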
GLA inh pH 4.5: alpha-galactosidase A (human) inhibition, pH 4.5; purified enzyme, 4-MU-alpha-Gal fluorescence, pH 4.5; AID 1467; activity change, negative = inhibition, % at 105 µM; 230,000 tested, under 10 active; inconclusive = small, poorly fitted or top-dose-only inhibition, or a rising curve; inactive = flat fitted curve, though single readings scatter; no compound was filed as active;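 also: 0% = full activity with enzyme and -100% = basal without enzyme; dose as in the result columns while the protocol names 77 µM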
Target sequence (P06280 whole entry, looked up): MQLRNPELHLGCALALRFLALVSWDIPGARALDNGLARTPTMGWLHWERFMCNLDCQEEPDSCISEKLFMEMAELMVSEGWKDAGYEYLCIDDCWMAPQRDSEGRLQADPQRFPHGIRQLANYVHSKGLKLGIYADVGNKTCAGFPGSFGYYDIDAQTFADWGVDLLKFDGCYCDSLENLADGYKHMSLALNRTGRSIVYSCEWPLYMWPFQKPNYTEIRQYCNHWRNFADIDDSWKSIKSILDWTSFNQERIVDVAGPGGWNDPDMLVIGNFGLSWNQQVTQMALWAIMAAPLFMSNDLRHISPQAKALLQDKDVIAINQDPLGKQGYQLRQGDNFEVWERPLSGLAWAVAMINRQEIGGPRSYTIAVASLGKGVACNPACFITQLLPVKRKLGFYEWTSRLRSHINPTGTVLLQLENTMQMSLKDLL
Rango-impB inh: inhibitors of Rango-importin beta complex formation. Q14974. Rango CFP/YFP FRET sensor + importin beta, 45 min. Potency, µM (titrated, usually from 92.2 µM), for inactives: at the highest dose inhibition of complex formation. 0.031% of 340,000 active. AID 540263; active = rising FRET ratio curve, often small or poorly fitted; inconclusive = mostly compound fluorescence or quenching in the first reads; inactive = flat curves in all reads;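 also: potency is read from the fitted curve at half-maximal effect; 0% = DMSO wells and 100% = buffer wells lacking importin beta; nearly all actives have a fitted effect of over 15% in size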
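FRET biosensor Rango (snurportin 1 IBB between N-terminal EYFP and C-terminal Cerulean), 50 nM in PBS/1 mM DTT/0.02% Tween-20/0.1% BSA, preincubated 5 min RT with compound; 0.125 microM importin beta added, 45 min RT, CFP/YFP FRET ratio read.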
* marks the source's active call; other numbers are inactive results; ? = inconclusive; . = not tested or not shown; & = joins results of further samples.

| miR-21 reporter | Rango dissoc inh | Compound | GLA inh pH 4.5 | Rango-impB inh |
| --- | --- | --- | --- | --- |
| -2% | -3% | Cc1cc(/C=N/NC(=O)CC#N)c(C)n1-c1ccc([N+](=O)[O-])cc1 | 0 | -0.7% |
| . | ? | CCCCNC(=O)COC(=O)c1c2c(nc3ccccc13)/C(=C\c1cccs1)CC2 | . | ? |
| -5% | 13% | O=C(CSc1nc2ccccc2nc1SCC(=O)N1CCOCC1)N1CCOCC1 | -9 | 1.8% |
| -1% | -16% | COc1cc2c(cc1OC)CN(C(=S)Nc1ccc(Cl)cc1)CC2 | 3 | 5.2% |
| . | -2% | Cc1nc(C(=O)Nc2ccc(Cl)cc2)sc1C1(C)CC(c2cccc([N+](=O)[O-])c2)=NO1 (centres undefined) | . | 0.7% |
| -2% | 15% | O=C(O)CC(c1cccc(Cl)c1)n1cccc1 (centres undefined) | 3 | -1.3% |
| -1% | 3% | O=[N+]([O-])c1ncn(Cc2ccccc2Cl)n1 | -9 | -5.6% |
| -6% | -7% | O=C(N/N=C\c1coc2ccccc2c1=O)c1ccco1 | -21 | -0.8% |
| 23% | -12% | O=[N+]([O-])c1cc(S(=O)(=O)N2CCCCCC2)ccc1Cl | 7 | -3.0% |
| -9% | 9% | O=C(C1CC1)N1CCN=C1SCc1ccccc1Cl | -4 | 1.5% |
| -7% | -23% | Cc1cc(NC(=O)CC(C)C)c(=O)n(Cc2cccc(F)c2)c1 | . | -2.2% |
| -8% | -9% | C/C(=N\NC1=NCCN1)c1ccc(Cl)cc1 | 4 | -3.7% |
| 1% | -1% | CCCCSc1nnc(CNC(=O)C23CC4CC(CC(C4)C2)C3)n1Cc1ccccc1 | -2 | -4.1% |
| -1% | -10% | CCOc1cccc(CNn2cnnc2)c1OCc1ccccc1Cl | -5 | -2.5% |
| -3% | -3% | COc1ccccc1NC(=O)C(C)OC(=O)CC1CCCC1 (centres undefined) | . | -0.6% |
| 4% | 3% | CC(C)Cc1cc(C(=O)N2CCCC(CO)(Cc3ccc(F)cc3F)C2)n[nH]1 (centres undefined) | . | 3.7% |
| 4% | 4% | CSCCC(NC(=O)c1ccc(Cl)cc1Cl)C(=O)OCC(N)=O (centres undefined) | -7 | 0.9% |
| -6% | ? | O=c1[nH]c2ccccc2nc1/C=C(\O)C(F)F | 2 | ? |
| 1% | 1% | COc1ccc(-n2ccn3c(CCC(=O)N4CCN(c5cccc(C)c5C)CC4)nnc3c2=O)cc1 | . | 0.1% |
| 9% | -24% | COc1cccc2sc(Nc3nc(-c4cc5ccccc5oc4=O)cs3)nc12 | -1 | ? |
| -3% | 2% | N#C/C=C/N1CCN(Cc2ccc3c(c2)OCO3)CC1 | . | -0.4% |
| 3% | 22% | Cc1ccc(S(=O)(=O)NC(=O)Nc2cc(C)on2)cc1 | 5 | 3.0% |
| 2% | 4% | Cc1ccc(CCNC(=O)C2CC(c3cccc(F)c3)=NO2)cc1 (centres undefined) | 0 | 2.1% |
| 2% | 10% | Cc1cc(C)c(S(=O)(=O)N(C)CC(=O)NCc2cccnc2)c(C)c1 | . | 1.0% |
| . | -4% | CCCn1c(CN2CCN(C(=O)c3ccco3)CC2)nc2cc(S(=O)(=O)N(C)C)ccc21 | . | 0.4% |
| -1% | -14% | Cc1cc(C(=O)OCC(=O)Nc2cccnc2Cl)c2ccccc2n1 | 0 | -6.8% |
| 24% | 2% | CC#CC(=O)N1CCCC(C(=O)c2ccc(SC)cc2)C1 (centres undefined) | . | 1.2% |
| -1% | 26% | CCCc1nc2sc3ccccc3c(=O)c2c(=O)n1Cc1ccc(OC)cc1 | 0 | -2.3% |
| -3% | ? | O=C(Nc1cccc(S(=O)(=O)N2CCOCC2)c1)c1cc2c(s1)CCC2 | 6 | 0.9% |
| 7% | 0% | COc1ccc(NC(=O)CSc2nc3ccc(Nc4nc(N5CCOCC5)nc(N5CCOCC5)n4)cc3s2)cc1 | . | 0.6% |
| -52% | 2% | Cc1ccccc1C(=O)NC(=S)Nc1ccccc1[N+](=O)[O-] | -1 | -0.4% |
| 2% | 6% | CC(Oc1ccc(-c2ccccc2)c(F)c1)c1ccn(S(=O)(=O)c2ccc(Cl)cc2)n1 (centres undefined) | 4 | ? |
| 17% | 1% | O=C(Nc1ccc(S(=O)(=O)NCCc2ccccc2)cc1)c1ccc(Br)o1 | -8 | -0.1% |
| . | 11% | Cc1ccc(S(=O)(=O)NCC(c2ccco2)S(=O)(=O)c2ccccc2)cc1 (centres undefined) | . | 2.4% |
| -3% | 4% | Cc1ccc(N2C(=O)CC(C)(C)CC2=O)cc1Cl | . | 1.5% |
| 1% | 8% | O=C(OCC(=O)N1CCN(c2ccccc2)CC1)c1cc(Cl)ccc1[N+](=O)[O-] | . | 1.3% |
| 14% | -1% | Cc1cccc(C(=O)c2cnc3ccccc3c2-c2ccccc2)c1 | -10 | 7.1% |
| . | 2% | COc1ccc(N2CC(C(=O)Nc3cc(C(F)(F)F)ccc3N3CCCC3)CC2=O)c(OC)c1 (centres undefined) | . | -1.1% |
| -31% | -1% | CCOc1ccc(-c2nc(C#N)c(NCc3ccc4c(c3)OCO4)o2)cc1 | 6 | -1.4% |
| -4% | 2% | Clc1ccc(OCc2nn3c(C4CCCCC4)nnc3s2)cc1 | -25 | 1.4% |
| 1% | 6% | NC(=O)/C=C\C(=O)Nc1cccc(C(F)(F)F)c1 | 1 | -3.0% |
| -9% | -5% | COc1ccc(S(=O)(=O)N(CCc2ccccc2)CC(=O)NCCCO)cc1 | 2 | 0.3% |
| -1% | 13% | Cc1ccc(C(C(=O)NC(C)(C)C)N(Cc2ccccc2)C(=O)c2snc(C(N)=O)c2N)o1 (centres undefined) | -4 | -2.0% |
| -4% | -7% | O=C(CSc1nccc(=O)[nH]1)Nc1ccc(Br)c(Cl)c1 | -16 | -0.9% |
| -7% | 2% | CCCC(=O)Nc1nnc(Sc2ccc(N(C)C)cc2)s1 | 4 | 1.5% |
| -3% | -15% | O=C1C(=O)N(Cc2cccnc2)C(c2cccc(O)c2)/C1=C(\O)c1ccc2c(c1)OCCO2 (centres undefined) | . | 1.7% |
| -2% | -1% | Cc1cccc(C)c1OCC(O)CN1CCN(c2ccccc2)CC1 (centres undefined) | 0 | -1.3% |
| -1% | -9% | Cc1ccc(S(=O)(=O)N2CCC(C(=O)N3CCC[C@H]3C(=O)NCc3ccco3)CC2)cc1 | -6 | -0.3% |
| -1% | -8% | CC1(C(=O)OCC(=O)NC(=O)NCc2ccccc2)CC1(Cl)Cl (centres undefined) | 1 | -1.5% |
| -1% | . | O=c1ccc2cc3c([nH]c4ccc(Br)cc43)oc-2c1O | -2 | . |

Next section.
| miR-21 reporter | Rango dissoc inh | Compound | GLA inh pH 4.5 | Rango-impB inh |
| --- | --- | --- | --- | --- |
| 15% | -11% | Cc1nc(-c2ccc(C(=O)Nc3cccc(F)c3)cc2)cs1 | . | -0.3% |
| -30% | -6% | Cc1ccc(C(=O)Nc2ccc(F)cc2F)o1 | 0 | 0.0% |
| -43% | . | Cc1ccc(NC(=O)c2ccc3ncsc3c2)cc1S(=O)(=O)N(C)C | -3 | . |
| -6% | -10% | COc1cc(C(=O)O/N=C(\N)c2ccc([N+](=O)[O-])cc2)cc(OC)c1OC | 5 | 5.0% |
| -2% | -2% | CCc1ccccc1NC(=O)Cn1cccc1C1=NC(c2ccccc2)CO1 (centres undefined) | -4 | -2.6% |
| 0% | -5% | C/C(=N\OCC(=O)Nn1c(C)nc2ccccc2c1=O)c1ccccc1 | -21 | -0.4% |
| -5% | -10% | CCN(CC)CCCN1C(=O)C(=O)/C(=C(/O)c2ccc(C)cc2)C1c1ccccn1 (centres undefined) | 1 | -1.0% |
| . | 12% | NC(=O)c1ccccc1NC(=O)c1cc(S(=O)(=O)N2CCCCC2)ccc1N1CCOCC1 | . | -4.2% |
| -2% | -9% | Cc1cccc(NC(=O)CCS(=O)(=O)c2ccc(Cl)cc2)c1 | . | -3.3% |
| -9% | 10% | Cc1cc2cc3c(cc2nc1SCc1ccc(C(=O)O)cc1)OCCO3 | 1 | -0.4% |
| -7% | 20% | CN(CC(=O)NC1CCCCCC1)S(=O)(=O)c1ccc2c(c1)n(C)c(=O)c(=O)n2C | 1 | 0.6% |
| -1% | -4% | CC(Sc1sc(=S)sc1SC(C)C(=O)O)C(=O)O (centres undefined) | -4 | -3.9% |
| -12% | -5% | CN(C)C(CNC(=O)c1ccc2c(c1)S(=O)(=O)c1ccccc1C2=O)c1ccco1 (centres undefined) | 3 | 0.1% |
| -1%&-1% | 5% | CCN(CC)c1ccc(NC(=O)Cn2ncc3c(C)n(Cc4ccccc4F)c(C)c3c2=O)c(C)c1 | 3 | 1.2% |
| 0% | 26% | CC(C)c1cc(C(F)(F)F)n2nc(C(=O)O)cc2n1 | 5 | 1.6% |
| 0% | 2% | COc1ccc(CN2CCNC(=O)C2CC(=O)N2CCCN(C(C)=O)CC2)c(OC)c1 (centres undefined) | . | -1.4% |
| . | -4% | Cc1ccc(S(=O)(=O)N2CCCC2CNC(=O)c2ccc3c(c2)OCO3)cc1 (centres undefined) | . | 0.9% |
| 5% | -4% | CCOC(=O)c1ccc(NC(=O)C(=O)NCc2ccncc2)cc1 | -3 | 0.6% |
| . | 0% | COc1cc(C#Cc2c(-c3cncn3C)n(C)c3ccc(-c4cc(OC)c(OC)c(OC)c4)cc23)cc(OC)c1 | . | ? |
| -1% | 2% | COc1ccc(CNC(=O)CCSCc2ccc(C)cc2)cc1 | 3 | 1.6% |
| -8% | 3% | COc1ccc(C2C(C(=O)c3sc(C)nc3C)=C(O)C(=O)N2CCN(C)C)cc1 (centres undefined) | -6 | -0.7% |
| ? | 34% | Cc1ccc([N+](=O)[O-])cc1NC(=O)Nc1cccc(F)c1 | -9 | 0.8% |
| 6% | -13% | COc1cccc(N2CCN(S(=O)(=O)c3ccc4c(c3)NC(=O)CS4)CC2)c1 | . | 1.9% |
| 4% | 12% | CCC1(C(=O)OC)NC(c2ccccc2OC)C2C(=O)N(C)C(=O)C21 (centres undefined) | 7 | 0.5% |
| -2% | -9% | Nc1nc(NCC2CCCO2)nc(Nc2cccc(F)c2)c1[N+](=O)[O-] (centres undefined) | -4 | -1.2% |
| 19% | 18% | COc1cc2c(c(O)c1OC)-c1c(cc(OC)c(OC)c1OC)C[C@@H](C)[C@@H](C)C2 | -8 | -1.4% |
| 0% | -2% | CCOc1ccc(NC(=O)CSc2nnc(-c3ccncc3)n2CC2CCCO2)cc1 (centres undefined) | 2 | -3.0% |
| -1% | -23% | CCN(CC)CCN1C(=O)C(O)=C(C(C)=O)C1c1ccc(OC)c(OC)c1 (centres undefined) | -6 | -1.9% |
| 7% | 7% | CCCCN(C(=O)CCC(=O)Nc1cc(C)on1)C(C(=O)NC1CCCC1)c1ccccc1OCC (centres undefined) | . | -0.9% |
| . | -8% | Cc1ccc(-n2nnc(-c3cccnc3)n2)cc1 | . | 1.9% |
| -9% | 3% | CC(=O)Nc1ccc(NC(=O)C(Sc2ccccc2)c2ccccc2)cc1 (centres undefined) | -5 | 0.3% |
| -2% | 4% | CCC(C)NC(=O)CSc1nc2scc(-c3ccccc3)c2c(=O)[nH]1 (centres undefined) | 11 | -4.6% |
| -1% | -1% | C/C(Nc1ccccc1)=C(/C#N)C(N)=O | 2 | -1.4% |
| -15% | 1% | COc1ccc(Cl)cc1NC(=O)C1Cc2ccccc2CN1S(C)(=O)=O (centres undefined) | . | 0.8% |
| -2% | 2% | CC(CNC(=O)c1ccc(C#N)cc1)NC(=O)c1ccc(C#N)cc1 (centres undefined) | . | 6.0% |

Bioassay records as filed in PubChem.

A portion of the library; count on the stated rates, not on these rows.
